VACV mCherry inh: qHTS for Stage-Specific Inhibitors of Vaccinia Orthopoxvirus: mCherry Reporter Primary qHTS; Vaccinia virus mCherry reporter infection, fluorescence; about a quarter of the inactives have no number; Potency, µM (titrated, usually from 36.5 µM), for inactives: at the highest dose activity change, negative = inhibition, most hits filed as inhibitors; 0.63% of 310,000 active; active = well fitted inhibition curve with a large enough effect; inconclusive = small, poorly fitted or top-dose-only effect; inactive = no such curve, though single readings can be large or run the other way; tested in A549 cells; further: nearly all actives have a fitted effect of over 35% in size; inactives centre near -10
VACV Venus inh: qHTS for Stage-Specific Inhibitors of Vaccinia Orthopoxvirus: Venus Reporter Primary qHTS; 0.46% of 330,000 active; Potency, µM (top dose mostly 36.5 µM), without a hit: at the highest dose activity change, negative = inhibition, usual class: inhibitors; Vaccinia virus Venus reporter expression, fluorescence; AID 720580, 2013; active means well fitted inhibition curve with a large enough effect; inconclusive means small, poorly fitted or top-dose-only effect; inactive means no such curve, though single readings can be large or run the other way; tested in A549 cells; further: nearly all actives have a fitted effect of over 30% in size; inactives centre near -10
* = called active by the depositor; i = inactive; ? = inconclusive; . = not tested or not shown; [ ] = another dose, or the depositor's remark. On the % scale 0 is the no-effect control and ±100 the full control effect; potency means the concentration at half of the fitted maximal effect.

SMILES	VACV mCherry inh	VACV Venus inh
Cc1ccccc1-c1ccc(CN2C(C(C)C)C(=O)N(Cc3cn(CCC4OCCO4)nn3)CCS2(=O)=O)cc1 (configuration not stated)	15%	-17%
Cc1cc(NC(=O)CSc2ncc(C(F)(F)F)cc2Cl)no1	-27%	5%
COc1ccc(N(CC(=O)NC2CCCCC2)C(=O)CCCC(=O)Nc2ccccn2)c(OC)c1	i	-3%
CCn1c(=N)n(CC(=O)OC)c2ccccc21	-17%	-6%
CCCCn1cc2c(c1-c1ccc(Br)cc1)c(=O)n(C)c(=O)n2C	-21%	-13%
Cc1ccc(NC(=O)c2ccccc2NC(=O)CCC(=O)O)cc1	-4%	-1%
Cc1ccc(NC(=O)c2ncn(CC(=O)N[C@H](C)c3cccc4ccccc34)n2)cc1C	i	-18%
O=C(CN1C(=O)CC(c2ccc(F)cc2)=Nc2ccccc21)NCc1ccccc1Cl	-25%	-20%
CCCCC(C(=O)O)C(C)CC(=O)NNC(=O)c1ccco1 (configuration not stated)	-2%	-5%
COC(=O)c1cccc(OCCCN2CCC(C(O)(c3ccccc3)c3ccccc3)CC2)c1	?	?
c1ccc(COc2cccc(CNn3cnnc3)c2)cc1	i	-11%
CC1CCCN(C(=O)c2ccc(-c3ccccc3Cl)o2)C1 (configuration not stated)	-17%	-5%
Cc1ccc(CNC(=O)C2CCCN(S(=O)(=O)c3cn(C)cn3)C2)cc1 (configuration not stated)	-13%	-8%
CCCCC(=O)NC(=S)NNC(=O)CC#N	-12%	-9%
O=C(NCc1ccc(F)cc1)c1ccc(NC(=O)N2CC3CCCN3c3ccccc32)cc1 (configuration not stated)	-5%	-4%
Cc1cc(=O)oc2cc(OCC(=O)N3CC(C)OC(C)C3)ccc12 (configuration not stated)	.	-2%
COc1ccc2c(CN3CCN(c4ccccc4F)CC3)cc(=O)oc2c1	i	0%
COc1cc2cnc(-c3ccsc3)c(-c3ccc(F)cc3)c2cc1OC	i	-28%
O=C(Nc1ccc2c(c1)CCCN2C(=O)c1cccs1)c1cccc(C(F)(F)F)c1	-1%	-17%
O=C(CSc1ncnc2c(-c3ccc(Cl)cc3)nsc12)c1ccccc1	i	-3%
COc1ccc(OC)c(S(=O)(=O)Nc2ccc(C(N)=O)cc2)c1	-15%	-7%
Clc1ccccc1CNC1CN2CCC1CC2 (configuration not stated)	i	-3%
Cc1c(N=c2scc(-c3ccccc3)n2C)c(=O)n(-c2ccccc2)n1C	?	-13%
O=C(CSc1nnc2ccccn12)NNC(=O)c1ccc(Br)cc1	-3%	-8%
CCOc1ccc(C2C(C(=O)c3ccco3)=C(O)C(=O)N2CCCn2ccnc2)cc1 (configuration not stated)	-14%	-5%
COc1ccc(-n2c(Cc3ccccc3)nc3ccccc3c2=O)cc1	-3%	-15%
CCOc1ccccc1NC(=O)CSc1nc(=O)n(Cc2ccncc2)c2c1CCC2	-5%	-16%
CC(=O)c1ccccc1NC(=O)CN1C(=O)CS/C1=C\c1nc(-c2ccc(C)cc2)cs1	-1%	5%
CC(=O)c1sc(NCCOc2ccc(C)cc2)nc1C	i	-13%
COC(=O)CSC1=C(C#N)C(c2ccc3c(c2)OCO3)C2=C(CCCC2=O)N1 (configuration not stated)	.	-19%
CN(C)CC(=O)N[C@@H]1CC[C@@H](CC(=O)NCCN2CCCCC2)O[C@@H]1CO	-9%	-11%
O=C(COC(=O)c1ccccc1Nc1ccc(SC(F)F)cc1)NCc1ccco1	?	12%
CSCCOC(=O)C1=C(C)Nc2ccc(C)cc2S1	-6%	-7%
COc1ccc(/C=N/NC(=O)c2ccccc2O)cc1CSc1ccccn1	-13%	-15%
O=C(CCSc1nnc(-c2ccncc2)o1)Nc1cccc(Cl)c1	?	?
O=C(C[C@H]1C[C@H](C(=O)N2CCCCC2)[C@@]2(CCc3ccccc3)c3[nH]c4ccc(Cl)cc4c3CCN2C1=O)NCCC1=CCCCC1	-21%	-24%
CC(=O)c1cccc(NC(=O)CCC2CCCC2)c1	i	-4%
CCN(CC(=O)NCc1ccc(F)cc1)C(=O)CN1CCN(c2cc(Cl)ccc2C)CC1	-17%	-13%
CCC(=O)N1c2ccc(C)cc2C2=NNC(=S)NC21O (configuration not stated)	-23%	-15%
CCCCn1nc2cc(C(=O)NCCCCc3ccccc3)ccc2c1OCC	?	?
Cc1ccc(C2(c3ccc(C)cc3)CC2C(=O)Nc2ccc([N+](=O)[O-])cc2O)cc1 (configuration not stated)	-24%	?
COc1ccc(/C=N/OCC(=O)Nc2cc(C)on2)cc1OC	i	-8%
O=C(NCC(O)c1ccc([N+](=O)[O-])cc1)C(c1ccccc1)c1ccccc1 (configuration not stated)	-8%	-8%
CCc1nnc(NC(=O)CSc2nnc(-c3ccco3)o2)s1	-1%	-6%
COc1cccc(CNC(=O)c2c(OC)cc(=O)n3c2CCN(C(=O)c2ccc(Cl)cc2)CC3)c1	i	0%
CCOC(=O)C(NC(=O)Nc1ccc(Cl)cn1)(Oc1ccc(F)cc1)C(F)(F)F (configuration not stated)	-16%	-4%
CN(C)c1ccc(C(=O)N2CCCC(Cn3cc(C(=O)N4CCCC4)nn3)C2)cc1 (configuration not stated)	i	-13%
COc1cc(C(=O)Oc2cc(N)n(S(=O)(=O)c3ccc(F)cc3)n2)cc(OC)c1OC	-1%	-13%
O=S(=O)(c1ccc(F)cc1)N1CCC2(CC1)OCCN2S(=O)(=O)c1cccs1	-6%	-7%
CCOc1ccccc1NC(=O)CCCn1cc([N+](=O)[O-])cn1	-2%	-9%
Cc1ccc2onc(CC(=O)O)c2c1	-10%	-8%
COc1ccc(/C(N)=N/OC(=O)CN(C)S(=O)(=O)c2ccccc2)cc1	-17%	-6%
O=C(OCc1ccc(F)cc1)c1cccnc1Cl	0%	-13%
Cc1nn(-c2ccccc2)c(OC(=O)C(C)C)c1Sc1ccccc1	-14%[7.34 µM]	-3%[7.34 µM]
CC(=O)Oc1oc(-c2ccccc2)nc1C=Nc1ccccc1	-10%	-14%
Cc1cc(C)c(C)c(S(=O)(=O)N2CCC(C(=O)NCc3cccs3)CC2)c1C	-2%	-28%
OCC1(Cc2ccccc2)CCN(Cc2cnc(-c3ccc(Cl)cc3)nc2)CC1	-22%	-11%
CNS(=O)(=O)c1ccc(NC(=O)C2c3ccccc3Oc3ccccc32)cc1	i	-14%
CCNC(=O)C1Cc2cc(S(=O)(=O)N3CCCC3)ccc2N1C(C)=O (configuration not stated)	i	-2%
CN(C(=O)CSc1nnc2ccccn12)C1CCS(=O)(=O)C1 (configuration not stated)	.	-26%
Carrying on:
SMILES	VACV mCherry inh	VACV Venus inh
O=C(NCc1ccco1)/C(=C/c1ccc(F)cc1)NC(=O)c1ccccc1	-20%	-16%
C=CCn1c(-c2ccc(OC)cc2)nc2ccccc21	-4%[1.46 µM]	-19%
O=c1c(-n2cncn2)c[nH]n1-c1cccc(Cl)n1	-13%	-8%
CCN1CCOC(=O)C1CC(=O)Nc1cccc(OC)c1 (configuration not stated)	17%	15%
Cc1ccc(N2C(=O)CSC23C(=O)N(CC(=O)NCc2ccccc2)c2ccccc23)cc1C (configuration not stated)	-18%	-14%
CSc1ccc(/C=C/C(=O)c2c(O)cc(C)oc2=O)cc1	17%	34%[activator]
CCCC12CN3CC(CCC)(CN(C1)C3c1c[nH]c3ccc(OC)cc13)C2=O (configuration not stated)	-8%	-15%
CCC[N+](C)(C)c1ccc(/C=C/c2ccnc3ccccc23)cc1	.	i
O=C(O)CNC(=O)/C(=C\c1ccc2c(c1)OCO2)NC(=O)c1ccc(Br)cc1	-20%	-14%
O=C(O)CCn1c2ccccc2c2nc3ccccc3nc21	5%	-9%
CCc1c(C)[nH]c2c(C)cccc2c1=O	.	-18%
CCCc1cc(N2CCN(C(=O)c3ccco3)CC2)n2c(nc3ccccc32)c1C#N	i	-13%
COc1ccc(S(=O)(=O)NCC(=O)N(CC(=O)NCC2CCCO2)c2ccccc2C)cc1 (configuration not stated)	.	-17%
O=C(NC1CCCCC1)C(c1cccs1)N(C(=O)c1ccco1)c1ccc2c(c1)OCCO2 (configuration not stated)	-14%	-7%
Cc1ccccc1N/N=C/c1sc(=O)n(Cc2cccc(C(=O)O)c2)c1Cl	?	15%
O=C(Cc1ccc(NC(=O)C2CCCN(C(=O)CCc3ccccc3)C2)cc1)Nc1cccc(C(=O)N2CCCCC2)c1 (configuration not stated)	-22%	?
CC(=O)Nc1ccc(OCC(O)Cn2c3ccccc3c3ccccc32)cc1 (configuration not stated)	-13%	-17%
O=C(/C=C/c1ccc(Cl)cc1Cl)NCCSCc1ccccc1	-14%	0%
Cc1ccc2oc3c(c(=O)c2c1)C(c1ccccc1F)N(c1ccccn1)C3=O (configuration not stated)	9%	8%
O=C(O)c1nn(CCOc2cccc(Cl)c2)c(=O)c2ccccc12	-3%	-14%
CCOc1ccc(S(=O)(=O)Nc2cccc(C(=O)N3CCN(c4ccc(OC)cc4)CC3)c2)cc1	-9%	-5%
CCN(C[C@H]1N[C@@](Cc2ccccc2)(C(=O)OC)[C@H]2C(=O)N(C)C(=O)[C@@H]12)C(=O)NC(C)C	-15%	0%
S=C(N/N=C/c1cccc2ccccc12)Nc1cccc(Cl)c1	-2%	4%
C/C(=N\NC(=O)C1(C)CC1(Br)Br)c1cccc(NC(=O)C(C)(C)C)c1 (configuration not stated)	-13%	-6%
O=C(c1cccc([N+](=O)[O-])c1)N1CCN(C/C=C/c2ccccc2)CC1	-13%	-9%
Cc1cc(S(=O)(=O)NCCCn2ccnc2)c(C)cc1Cl	i	-13%
O=C1CC(c2ccc3c(c2)OCO3)C2=C(CCCC2=O)N1 (configuration not stated)	.	-10%
O=C(Cc1n[nH]c(=O)c2ccccc12)NCc1ccccc1	i	-15%
CCOC(=O)c1c(C)[nH]c(C)c1C(=O)CSc1nnc(-c2ccc(OC(F)F)cc2)o1	?	?
CCC(=O)Nc1nnc(SCc2ccc(F)cc2)s1	.	-7%
O=C(OCC(=O)N(CCc1ccccc1)Cc1ccccc1)c1ccccc1O	-8%	-5%
CN(C)CCNC(=O)c1cccc(S(=O)(=O)Nc2ccccc2F)c1	i	-8%
CCCc1[nH]n(-c2ccc([N+](=O)[O-])cc2)c(=O)c1C=NCCc1ccc(OC)c(OC)c1	?	-18%
O=C(NCc1ccco1)c1nc2c(nnn2Cc2cccc(Cl)c2)c(=O)[nH]1	-1%	0%
COc1ccc([N+](=O)[O-])cc1NC(=O)c1ccc(Br)s1	-8%	7%
CC(=O)NC(=S)Nc1ccccc1N1CCN(C(=O)c2ccccc2)CC1	-22%	-12%
Cc1ccc(C2Nc3cccc4cccc(c34)N2)cc1	?	-3%
Cc1cccn2cc(-c3ccc4c(c3)NC(=O)CO4)nc12	i	-15%
COc1ccc(/C=N/NC(=O)c2cccnc2)cc1CN1CCc2ccccc2C1	-22%	-8%
Cc1ccc(S(=O)(=O)N2CCOCC2)cc1C(=O)Nc1ccccc1N1CCCC1	i	-22%
CN1CCN(C(CNS(=O)(=O)c2ccc([N+](=O)[O-])cc2)c2ccc(F)cc2)CC1 (configuration not stated)	-22%	-19%
COc1cc(C(=O)Nc2cccc3ncccc23)cc(OC)c1OC	.	-8%
CCC(=O)Nc1ccc(S(=O)(=O)NCc2cccn2Cc2cccc(C)c2)cc1	-2%	-20%
COc1ccccc1NC(=O)C(=O)Nc1ccccn1	i	-3%
CCn1c(SCC(=O)Nc2ccc(NC(C)=O)cc2)nnc1C1CC1	i	-3%
CCOc1ccc(-c2cn3nc(CC(C)C)sc3n2)cc1	-14%	-22%
Nn1c(Cc2cccc3ccccc23)nnc1SCC(=O)N1CC(=O)Nc2ccccc21	.	-9%
CN(C)CCNc1ncnc2c1cnn2-c1ccc(Cl)cc1	-6%	?
CC1=C(C(=O)Nc2cccc(C(F)(F)F)c2)C2(CCCCCC2)OC1=O	-9%	-22%
COC(=O)C1=C(C(=O)OC)[C@@H]2N(C)c3ccccc3[C@@]23C[C@@H](C(=O)OC)N(C(=O)COCc2ccccc2)C3=N1	-9%	?
COc1ccc(N(CC(=O)Nc2ccc(C)cc2C)S(=O)(=O)c2c(C)n[nH]c2C)cc1	?	?

Screens deposited in PubChem by National Center for Advancing Translational Sciences (NCATS).
